# Choline anaer gr = blocks anaerobic gram-negative growth on choline | 55,000 tested, 0.2% active | AID 1963822 | calls only | Gram-negative bacterium anaerobic choline minimal medium, absorbance growth; stronger effect = lower value; many inactives read as strong as hits in the columns shown;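 active means growth z-score on choline under -2 at 7 or 20 h with little or no fall on glycerol, limits in tiers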;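 further: stock transfer was 300 nL into about 50 µL; the organism is E. coli; final concentration not given here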
# Choline anaer gr early = further read-out of Choline anaer gr, marked with its call; z-score; measured here: choline growth z-score, timepoint 1;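 score of optical density at 7 h as mean of two plates; lower means less growth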
# The depositor's hits bear a star; i = inactive; & = joins results of further samples. Not all compounds are listed (hit frequency here may not be typical).
SMILES,Choline anaer gr,Choline anaer gr early
CCCCC[C@H](O)/C=C/[C@H]1[C@H](O)CC(=O)[C@H]1C/C=C\CCCC(=O)OC(C)C,i,-0.97
CCC(C(=O)NC1CCCCC1)N1CCN(Cc2ccc(F)cc2)C(=O)C1=O (configuration not stated),i,0.51
Cn1c(=O)c2ccc(C(=O)NC3CCCCC3)cc2n2c(SCC(=O)NC3CCCC3)nnc12,i,-0.51
O=c1cc(CN2CCc3ccccc3C2)nc2nc(NCc3ccccc3Cl)[nH]n12,i,-0.16
O=C1CC(c2nc3ccccc3n2CC(O)COc2ccccc2)CN1c1ccccc1 (configuration not stated),i,-0.5
CCc1noc2ncnc(NC3CCCCC3)c12,i,-1.8
CCNC1=N[C@@H]2[C@@H](O)[C@H](O)[C@@H](CO)O[C@@H]2S1,i,0.9
Cc1ccn2c(=O)cc(CSc3nnc(C)s3)nc2c1,i,-1.5
CN(CC=CC#CC(C)(C)C)Cc1cccc2ccccc12,i,0.39
CN1CCN(C(=O)CN2C(=O)c3ccccc3Sc3ncccc32)CC1,i,-0.61
C[N+](C)(C)CCCCCC[N+](C)(C)C,i,-1.4&-0.49&0.46
CS(=O)(=O)Nc1cc(C(=O)N2CCCN(c3ncccn3)CC2)ccc1N1CCNCC1,i,-0.12
O=C(c1ccc2c(c1)N(C(=O)C1CC1)CC2)N1CCCC1,i,-0.4
CCc1nc(-c2cc(S(=O)(=O)Nc3cc(F)ccc3Cl)c(C)s2)cs1,i,1.2
Cc1cc(C)c2c(n1)SCCN2C(=O)Nc1ccc(C(=O)NCCN(C)C2CCCCC2)cc1,i,-0.66
Cn1c(SCC(=O)N2CCCCC2)nc2cc(-c3ccccc3)sc2c1=O,i,-2.1
COc1ccc(C2CC(=O)N(c3cccc(Cl)c3)C(=O)C2)cc1,i,-1.4
CCOC(=O)Cn1c(=O)c2c(nc3n2CCN3c2ccc(OC)cc2)n(C)c1=O,i,-1.5
O=C(NCC1CCCO1)C1CCN(S(=O)(=O)c2ccc(-c3noc(C4CC4)n3)cc2)CC1 (configuration not stated),i,-0.25
COc1cccc(-c2ccnc3c(-c4ccccc4)c(C)nn23)c1,i,0.37
Cc1ccc2c(c1)c(=O)c1c(n2C)CCN(CC(=O)Nc2ccccc2)C1,i,2.1
Cc1nnsc1C(=O)Nc1nc(C)c(C(=O)OCC(C)C)s1,i,0.48
CC(CNC(=O)c1ccc(-n2nnc3cccnc32)cc1)c1ccccc1 (configuration not stated),i,0.99
COc1cc(N2CCn3c(nc4ccccc43)C2)ccc1NS(C)(=O)=O,i,-0.96
COCCNC(=O)c1sc2c(cnc3c(F)cccc32)c1-c1ccccc1,i,0.33
# Additional structures follow.
SMILES,Choline anaer gr,Choline anaer gr early
CCc1onc(C)c1C1CCCN1S(=O)(=O)c1ccc2c(c1)OCCN2C(C)=O (configuration not stated),i,0.47
OCCCNc1nc(Nc2ccc3c(c2)OCO3)c2cnn(-c3ccccc3)c2n1,i,0.87
Cc1cc(S(=O)(=O)Nc2cc3c(cc2N2CCOCC2)n(C)c(=O)n3C)ccc1F,i,0.25
Cc1nccn1Cc1nc(C2CCCCC2)no1,i,1.5
c1cc(N2CCCCC2)ncc1-c1noc(CN2CCSCC2)n1,i,0.75
O=C(Nc1ccc2c(c1)OCO2)N1CCN(c2ccc(-c3noc(C4CC4)n3)cc2)CC1,i,-0.54
CN(C)c1ccc(NC(=O)c2ccc(Br)cc2)c(C(=O)O)c1,i,-0.23
COC(=O)c1ccccc1NC(=O)c1ccc(=O)n(Cc2ccc(F)cc2)c1,i,-0.04
Cc1nc2ccccc2n(CCC(=O)NCCc2c[nH]c3ccc(Cl)cc23)c1=O,i,-0.4
Cc1cc(C(C)(C)CC(C)(C)C)ccc1OCCOCC[N+](C)(C)Cc1ccccc1,i,-2.7
O=S(=O)(c1ccc(-c2cnc(C3CCC3)o2)s1)N1CCCc2ccccc21,i,1.4
CCCc1cc(C(=O)N2CCCC2c2ccc(Cl)cc2)no1 (configuration not stated),i,-0.78
Cc1cc(N2CCCCC2)nc2ccc(NC(=O)CCC(=O)N3CCC(C)CC3)cc12,i,-0.95
CC1CC(=O)c2cnc(NCCCN3CCOCC3)nc2C1 (configuration not stated),i,0.42
CCOc1ccc(C(C)C)cc1S(=O)(=O)Nc1cccc(-c2ccc(N3CCCCC3)nn2)c1,i,0.41
CCOc1ccc(CNS(=O)(=O)c2cc(-c3nc(C)cs3)sc2C)cc1,i,-1.4
O=C(NCCC1=CCCCC1)c1ccccc1NC(=O)c1nsc2ccccc12,i,-0.22
COc1ccc2c(c1)cc(C(=O)Nc1ccc(F)cc1F)n2C,i,-0.1
NC(=O)c1cnc2ncnn2c1N,i,0.54
CS(=O)(=O)NC(=O)CCCCCCCCCC=C(Br)Br,i,-0.71
O=C(NN=Cc1ccc([N+](=O)[O-])o1)c1ccc(O)cc1,i,-2.5
O=C1COc2ccc(S(=O)(=O)N3CCCC(C(=O)N4CCCc5ccccc54)C3)cc2N1 (configuration not stated),i,0.25
Cn1c(SCC(=O)Nc2ccc3c(c2)OCO3)nc2cc(-c3ccccc3)sc2c1=O,i,-1.8
CCOC(=O)c1c(C)oc2ncnc(N(CCO)c3ccccc3)c12,i,-0.21
COc1cccc(-c2nc(SCc3cc(=O)c4cc(F)ccc4[nH]3)n[nH]2)c1,i,0.47
# Further records follow:
SMILES,Choline anaer gr,Choline anaer gr early
Cc1ccc(-c2nc3ccccc3n2CCNS(=O)(=O)c2ccc(C)cc2C)cc1,i,1.2
Cc1ccc(-c2ccc3nn(Cc4nc(-c5ccc(Br)cc5)no4)c(=O)n3n2)cc1,i,0.68
O=S(=O)(c1ccc2c(c1)OCCO2)N1CCCN(c2nc3cccnc3s2)CC1,i,0.13
Clc1ccc(OCc2nc3c4cnn(Cc5ccccc5)c4ncn3n2)cc1,i,0.17
COc1ccc(-c2[nH]ncc2CN2CCCC2c2cc(C(C)C)on2)cc1OC (configuration not stated),i,1.7
CCCCCSc1nc2c(cnn2-c2ccc(F)cc2)c(=O)[nH]1,i,1.1
Cn1cc(C(=O)Nc2ccc(F)cc2F)c2[nH]c(=O)n(-c3ccc(Cl)cc3)c(=O)c21,i,0.14
CC(=O)Nc1ccc2nc(N3CCC(C(=O)Nc4nccs4)CC3)cc(C)c2c1,i,0.36
O=C1COc2ccc(NC(=O)c3ccc(Cl)cc3)cc2N1,i,0.49
Cn1c(=O)c(-c2noc(CCC(=O)Nc3ccc(Cl)cn3)n2)nn(-c2ccc(F)cc2)c1=O,i,0.51
O=C(NCc1ccccn1)c1ccccc1-c1nc(-c2ccccc2)no1,i,-0.92
CC(C)CNC(=O)Cc1ccc(-n2c(=O)c3ccccc3n(CC(=O)NC(C)C)c2=O)cc1,i,-0.37
Cc1ccc(NC(=O)NCCCn2c(-c3ccc(F)cc3)nc3cccnc32)cc1C,i,0.52
Nc1ncc2c(n1)CC(c1cc(F)cc(F)c1)CC2=O (configuration not stated),i,-1.4
CCc1onc(C)c1C1CCCN1Cc1cn[nH]c1-c1ccc(C)c(C)c1 (configuration not stated),i,-0.55
COc1ccc(-c2cc(C(=O)N3CCCC3c3ccc(Cl)cc3)no2)cc1OC (configuration not stated),i,-0.33
Cc1cccc(NC(=O)N2CCN(Cc3nc(-c4ccccc4)oc3C)CC2)c1,i,0.31
O=C(O)c1ccccc1Nc1cccc(C(F)(F)F)c1,i,0.52&0.7&0.43&0.33
CCCN(C(=O)c1ccccc1)c1nc(-c2ccc(C)cc2)cs1,i,1.9
O=C(CSc1nccn2nc(-c3ccc(F)cc3)cc12)Nc1ccc2c(c1)OCCO2,i,-0.35
Cc1cc(C(=O)N2CCCC2)c2ccccc2n1,i,0.07
COc1ccc(-c2noc(NCC3CCCO3)n2)cc1 (configuration not stated),i,-1.7
Cc1c(CN2CCC3(CC2)OCCO3)nnn1-c1ccccc1,i,-0.87
Cc1cc(NCc2cccnc2)n2nc(C(F)(F)F)c(-c3ccccc3Cl)c2n1,i,-0.13
COCCn1c(SCC(=O)OC)nc2c(-c3ccccc3)cn(C)c2c1=O,i,0.41

# Compound profiles, as listed above.
# `CC(C)CNC(=O)Cc1ccc(-n2c(=O)c3ccccc3n(CC(=O)NC(C)C)c2=O)cc1` as listed: Choline anaer gr = i; Choline anaer gr early = -0.37
# `Cc1cc(NCc2cccnc2)n2nc(C(F)(F)F)c(-c3ccccc3Cl)c2n1` as listed: Choline anaer gr = i; Choline anaer gr early = -0.13

# The results go on.
SMILES,Choline anaer gr,Choline anaer gr early
Cc1ccc2nc(-n3nc(C)c4c3NC(=O)CC4c3ccsc3)sc2c1 (configuration not stated),i,-0.39
Cc1nn(-c2nc3ccccc3o2)c2c1C(c1cccc(Br)c1)CC(=O)N2 (configuration not stated),i,0.11
CC(C)Oc1ccc(C2CC(=O)NC3=C2C(=O)CCC3)cc1 (configuration not stated),i,-0.05
Cc1ccc2cc3c(nc2c1)N(C(=O)CC(C)C)CC3,i,0.01
Cc1nc(SCc2noc(CCC(=O)Nc3ccc(F)cc3F)n2)n[nH]1,i,-0.64
O=C(NCc1ccccc1)c1cccn1-c1cccnc1,i,-0.86
COc1cc(CNCCO)ccc1OCc1ccc2c(c1)n(C)c(=O)n2C,i,1.1
CCn1c(CN(c2ccc(F)cc2)S(C)(=O)=O)nnc1SCC(=O)Nc1nccs1,i,1
COc1ccc(NC(=O)C2CCCN(c3ccc4cc(S(=O)(=O)N5CCCC5)ccc4n3)C2)cc1OC (configuration not stated),i,1.1
COc1ccc2scc(N3CCN(CCc4ccccc4)CC3)c(=O)c2c1,i,-1.6
O=C(COc1ccc(F)cc1)N1CCN(c2ncnc3c2nnn3-c2ccc(Cl)cc2)CC1,i,-0.16
CCCCCCNC(=O)C1CCCN(c2ncc(-c3ccc(F)cc3)cn2)C1 (configuration not stated),i,1.7
CCCn1c(=O)c2cc(F)ccc2n2c(SCc3cc(C)ccc3C)nnc12,i,-0.13
CC(C)Cc1cc(-c2nn3c(COc4ccccc4)nnc3s2)n[nH]1,i,1.2
CC(N=C1NC(C)(C)Cc2ccccc21)C(=O)O (configuration not stated),i,0.5
CCOc1ccc2ncc3c(-c4ccccc4)nn(CC(=O)Nc4cccc(F)c4)c3c2c1,i,-0.56
O=S(=O)(c1cccc2nsnc12)N1CCN(c2cc(-c3cccc(F)c3)ncn2)CC1,i,-0.4
O=S(=O)(c1ccc(F)cc1)N1CCc2nc(N3CCCCC3)ncc2C1,i,0.59
O=C(c1cnc2ccccc2c1Nc1ccc(F)cc1)N1CCOCC1,i,-0.16
O=C(Nc1ccc(N2CCN(c3ccccc3Cl)CC2)c(C(=O)O)c1)c1ccccc1,i,0.52
CC1CCN(C(=O)CCCn2c(=O)c3cccn3c3ccccc32)CC1,i,0.26
CCN1CCN(c2cc(C)nc3c(-c4ccc(F)cc4)c(C(F)(F)F)nn23)CC1,i,0.6
CCOC(=O)c1sc(NC(=O)C2(c3ccc(C)cc3)CCCC2)c(C#N)c1C,i,1
Cc1cc(C)n(-c2nc(C)c(C(=O)N3CCN(c4ccccc4)CC3)s2)n1,i,0.79
COc1ccc(C(=O)N2CCC(c3nc4ccccc4o3)CC2)cc1,i,0.25

# 6 entries from above, with tabs:
SMILES	Choline anaer gr	Choline anaer gr early
CC(C)Oc1ccc(C2CC(=O)NC3=C2C(=O)CCC3)cc1 (configuration not stated)	i	-0.05
Cc1ccc2cc3c(nc2c1)N(C(=O)CC(C)C)CC3	i	0.01
Cc1nc(SCc2noc(CCC(=O)Nc3ccc(F)cc3F)n2)n[nH]1	i	-0.64
O=C(NCc1ccccc1)c1cccn1-c1cccnc1	i	-0.86
COc1cc(CNCCO)ccc1OCc1ccc2c(c1)n(C)c(=O)n2C	i	1.1
CCn1c(CN(c2ccc(F)cc2)S(C)(=O)=O)nnc1SCC(=O)Nc1nccs1	i	1

# (more compounds)
SMILES,Choline anaer gr,Choline anaer gr early
Cc1nc(CN2C(=O)COc3ccc(S(=O)(=O)N4CCCCC4)cc32)no1,i,-0.23
COc1ccc2c(c1)NC1(CCN(C(=O)Nc3ccc(Br)cc3F)CC1)c1cccn1-2,i,-0.27
CCc1nc2ccccc2n1CC(O)COc1cc(C)ccc1C (configuration not stated),i,1.1
O=c1[nH]ccn(-c2cc(F)cc(F)c2)c1=O,i,0.36
O=C(NCC1CCCO1)c1ccc(CN2C(=O)CCn3nc(-c4ccc(Cl)cc4)cc32)cc1 (configuration not stated),i,0.43
Cc1ccccc1NC(=O)N1Cc2cccn2-c2ccccc21,i,1.2
Cc1ccccc1-c1noc(-c2cccnc2N(C)Cc2ccccc2)n1,i,0.77
COc1ccc(CNc2nc(-c3cccnc3)nn2S(=O)(=O)c2ccc(Cl)cc2)cc1,i,-1.2
COC(=O)c1c(-c2ccc(Cl)cc2)noc1NC(C)C,i,0.18
COc1cccc(-c2ccc(SCc3nc(-c4ccc(OC)c(OC)c4)no3)nn2)c1,i,0.71
COc1ccc(Oc2cc3c(cc2NS(=O)(=O)c2ccccc2F)n(C)c(=O)c(=O)n3C)cc1,i,0.31
COC(=O)c1cc(N2CCCCC2)ccc1NCc1cc2ccc(OC)cc2[nH]c1=O,i,-0.21
Cn1c(=O)c(N2CCC(C(=O)NCCN3CCOCC3)CC2)nc2ccccc21,i,0.26
O=C(CCn1c(=O)c2ccccc2n2c(SCC(=O)NC3CCCC3)nnc12)NC1CCCCC1,i,0.89
Cc1ccc2nc(-c3ccccc3NC(=O)Cc3ccccc3)ccc2c1,i,3.9
COc1ccc(CC(Cc2ccc3c(c2)OCO3)NC(=O)c2cccc(N(C)C)c2)cc1 (configuration not stated),i,1
COc1ccc(NC(=O)CC2CCN(S(=O)(=O)c3ccc4c(c3)oc(=O)n4C)CC2)c(OC)c1,i,-0.89

# In the list so far, two contain a furan ring, fused or not:
SMILES,Choline anaer gr,Choline anaer gr early
O=C(NN=Cc1ccc([N+](=O)[O-])o1)c1ccc(O)cc1,i,-2.5
CCOC(=O)c1c(C)oc2ncnc(N(CCO)c3ccccc3)c12,i,-0.21

# Source: PubChem
